# Assay outcomes as filed in PubChem.
# Mtb hypoxia inh: inhibitors of hypoxia-regulated fluorescent reporter in Mycobacterium tuberculosis; M. tuberculosis hypoxia-regulated fluorescent reporter, fluorescence; fluorescence inhibition, % (concentration not given with the values); hit rate 0.1% among 300,000;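 active = 35 to 45% if threefold the growth effect, above 45% if 1.5-fold the growth effect; inactive = the rest, general growth blockers included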;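 also: wells of about 50 µL received 100 nL stock; 0% = vehicle wells and 100% = reference inhibitor wells; whole bacteria with a GFP reporter of the hypoxia response; strong numbers were not always called active; many hits fall short of the cut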
# ugtP null kill: growth inhibition of S. aureus ugtP deletion strain. S. aureus RN4220 ugtP deletion, OD600 growth, 16 h; some inactives read as strong as hits. growth inhibition, % (no concentration beside the values). hit rate 0.54% among 330,000;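 active = z-score under -3 and OD600 up to 0.15 on both plates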;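 also: plate controls were untreated wells for no effect and antibiotic for full effect; wells of about 80 µL received 100 nL stock; the first replicate is given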
# BJeLR viability: kills HRASV12-expressing BJeLR cells | BJeLR (HRASV12) viability, CellTiter-Glo ATP luminescence, 48 h; reference of the scale not given here | inhibition, % (concentration not given with the values) | hit rate 0.17% among 300,000;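 active = replicate mean above 50%; inconclusive = above 50% but judged a plate artefact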;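 also: 50 nL library stock added to about 25 µL; numbers are from one replicate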
# Bead autofluor: compound fluorescence in toxin protease inhibitor counterscreen; compound autofluorescence counterscreen, microsphere flow cytometry; active compounds read high; fluorescence intensity (concentration not given with the values); hit rate 3.1% among 360,000;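 active = at least 3 SD above the mean of all compounds, about 16000 in these data; inconclusive = too few beads counted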;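 also: 100 nL of 1 mM stock went into each well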
# PrP 5UTR inh: suppresses PrP 5' UTR mRNA reporter expression; cell-based PrP 5' UTR mRNA reporter, plate reader; inhibition, % (no concentration beside the values); hit rate 0.35% among 340,000; AID 488862;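 active = every replicate at 50% or more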;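 also: 0 = median of the neutral control wells; tested in H4 reporter cells; numbers are from one replicate; inactives centre near -14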
# Sa RN4220 lethal: S. aureus RN4220 growth inhibition. hit rate 0.33% among 330,000. AID 1259311. inhibition, % (no concentration beside the values). OD600, 16 h;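 active = z-score of -3 or lower and OD600 up to 0.18 on both plates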;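 also: plate controls were untreated cells for no effect and reference antibiotic for full effect; stock transfer was 100 nL into about 80 µL; one replicate is shown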
# Mtb hypoxia inh growth: second read-out of Mtb hypoxia inh, no call of its own (marks repeat the call); growth inhibition, %; measured here: M. tuberculosis growth (absorbance);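 0% = vehicle and 100% = reference antibiotic; read after six days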
# Numbers without * were called inactive; ? = inconclusive; / = not tested or not shown; & = joins results of further samples.
structure	Mtb hypoxia inh	BJeLR viability	ugtP null kill	PrP 5UTR inh	Mtb hypoxia inh growth	Sa RN4220 lethal	Bead autofluor
O=C(O)CC(CC(=O)Nc1ccc(-c2ccccc2)cc1)c1ccccc1 (stereo not drawn)	17	1	2	-23	9	1.1	3545
O=C(Cc1cccs1)N/N=C/C=C\c1ccco1	/	0	/	-37	/	/	2533
CCOC(=O)c1cc(C#N)c(N2CCCNCC2)nc1C(F)(F)F	16	9	4	-12	1	2.1	3398
O=C(O)c1ccc(CSc2nnc(-c3ccccc3Br)o2)cc1	8	3	-11	-24	4	4.0	4729
COc1cc(OC)cc(C(=O)N[C@H](C(=O)OCC(=O)Nc2ccc(F)c(F)c2F)C(C)C)c1	-2	-4	0	11	14	-1.1	4769
Cc1ccc(NS(=O)(=O)c2ccc3c(c2)CC(=O)N3)cc1C	0	-4	6	-5	-9	12	5941
CC(C)c1nc(N2CCOCC2)c(C#N)c2c1CCC2	/	2	11	-19	/	3.4	2417
Cc1cccc(NC(=O)CNC(=O)c2sc3ccccc3c2Cl)n1	-23	2	-2	-14	-10	2.1	?
COc1ccc(NC(=O)c2oc3ccc(S(=O)(=O)N4CCC5(CC4)OCCO5)cc3c2C)cc1	9	1	3	/	5	0.7	13525
C=CCN1C(=O)CSc2ccc(C(=O)NCc3cccs3)cc21	13	2	9	-18	13	6.9	4087
O=C(NCCCn1ccnc1)C(=O)NCC1OCCN1S(=O)(=O)c1ccc2c(c1)OCCO2 (stereo not drawn)	10	-1	-1	-1	-1	0.5	5159
Cc1nn(C)c(C(=O)Nc2ccc(S(=O)(=O)NC34CC5CC(CC(C5)C3)C4)cc2)c1Br	2	2	-25	9	3	-2.1	4457
Cc1cc(SCC(N)=O)nc(SCC(=O)c2ccccc2)n1	-8	-12	-5	-10	6	0.0	9897
COc1ccc(NC(=S)Nc2ccc(N(C)C(C)=O)cc2)cc1	0	8	-7	-20	9	-5.3	4031
O=C(CCC(=O)N1CCN(c2ccc(F)cc2)CC1)N1CCN(c2ccc(F)cc2)CC1	1	-8	7	-16	7	5.8	3564

# Following part
structure	Mtb hypoxia inh	BJeLR viability	ugtP null kill	PrP 5UTR inh	Mtb hypoxia inh growth	Sa RN4220 lethal	Bead autofluor
O=C(Nc1cccnc1)c1cc2cc(Br)ccc2o1	-3	11	10	-63	0	6.1	2909
O=C1CCN(Cc2ccc([N+](=O)[O-])cc2)CCN1[C@H](CO)c1ccccc1	/	-4	/	-13	/	/	3792
COc1ccc2[nH]c(C(=O)O)c(CCN3C(=O)c4ccc(C(=O)O)cc4C3=O)c2c1	9	5	11	-20	5	4.2	3439
C/C(CC1CC(C)(C)OC1=O)=N/Nc1nc(-c2ccccc2)cs1 (stereo not drawn)	/	-16	/	-34	/	/	2098
CC(=O)Nc1ccc(S(=O)(=O)N2CCN=C2SCc2ccc(F)cc2)cc1	-1	7	-3	-12	7	4.2	5916
C[C@]1(OC(=O)C=Cc2ccccc2)CC(O)[C@]2(O)C=COC(OC3OC(CO)C(O)C(O)C3O)C21 (stereo partly drawn)	4	/	-2	/	-1	3.0	/
COC(=O)Nc1ccc(S(=O)(=O)N2CCC(C(=O)NCc3ccc4c(c3)OCO4)CC2)cc1	15	/	4	-8	9	3.2	4252
CCCCC(CCC(=O)Nc1ccn(-c2ccccc2)n1)C(=O)O (stereo not drawn)	-1	3	4	-8	4	2.3	4644
Cc1nc2oc(C(=O)c3ccc(Br)cc3)c(N)c2c2c1COC(C)(C)C2	/	2	5	-12	/	3.5	2090
CS(=O)(=O)N1CCCC(C(=O)NCCCN2CCc3ccccc3C2)C1 (stereo not drawn)	-2	6	19	-10	-4	5.3	7599
CN(C)CCNC(=O)C(=O)Nc1ccc2c(c1)N(S(=O)(=O)c1cccs1)CCC2	8	21	5	-47	8	2.2	5778
COc1ccc(N2C(=O)c3ccccc3NC2c2ccc(OC)c(Cn3nnc4ccccc43)c2)cc1 (stereo not drawn)	-10	-7	-6	-55	2	-7.5	2409
CC(C)[C@@H](C(=O)N[C@@H](C(=O)O)c1ccccc1)N1C(=O)N2CCc3c([nH]c4ccccc34)[C@@]2(C)C1=O	/	-1	6	-18	/	0.1	4126
O=C1CC(N2CCN(Cc3ccc4c(c3)OCO4)CC2)C(=O)N1c1cccc(Cl)c1 (stereo not drawn)	16	-5	1	-30	6	-0.3	4208
Cc1ccc(NC(=O)/C(=C\c2cccc([N+](=O)[O-])c2)NC(=O)c2cccs2)cc1	-4	0	0	9	-5	-0.3	6394

# Continuation:
structure	Mtb hypoxia inh	BJeLR viability	ugtP null kill	PrP 5UTR inh	Mtb hypoxia inh growth	Sa RN4220 lethal	Bead autofluor
CC(=O)Nc1ccc(S(=O)(=O)N(C)CC(=O)NN=Cc2cccs2)cc1	2	/	14	/	4	0.2	/
O=[N+]([O-])c1cccc(C(=S)N2CCN(c3ccccc3F)CC2)c1	8	-13	-9	-22	7	-3.9	3580
Cc1ccccc1CSCCC(=O)NCCC1=CCCCC1	2	9	2	-13	-1	-2.8	9671
COc1ccc(NC(=O)NC[C@@H]2CC[C@@H](Cc3ccc(-c4ccccc4)cc3)O2)cc1	6	/	10	-18	2	6.5	3567
O=C(N=c1ccn(-c2nc3ccccc3nc2NS(=O)(=O)c2ccccc2)cc1)c1ccccc1Cl	-4	0	16	-7	-3	-0.9	6329
COc1ccc(N2C(=O)/C(=C/c3ccc(C)o3)C(=O)NC2=S)cc1	-1	51*	4	-3	0	3.2	4029
COCCCNC(=O)CC1C[C@H](C(=O)N2CCOCC2)[C@@]2(C)c3[nH]c4ccccc4c3CCN2C1=O (stereo partly drawn)	-3	/	-1	-13	3	0.5	3974
CCC=C(NC(C)=O)c1ccccc1	11	/	1	/	-2	8.1	/
Cc1ccc(NC(=O)COC(=O)CN2CSCC2=O)cc1C	/	-5	5	-17	/	3.1	3337
COc1ccc(N2CCN(C(=S)Nc3cccc(C)c3)CC2)cc1	6	-5	2	-16	7	2.1	5193
COc1ccccc1NS(=O)(=O)c1cc(NC(=O)c2cnccn2)ccc1N1CCOCC1	-3	-1	-8	-15	-11	5.0	5163
O=C(Nc1ccc(C(=O)O)cc1)/C(=C\C=C\c1ccccc1)NC(=O)c1cccc(Br)c1	0	5	9	-3	7	1.6	2526
Cn1c(=O)c2c(ncn2CCCc2ccccc2)n(C)c1=O	2	1	-8	-10	7	4.1	20359*
CN(C)S(=O)(=O)c1ccc(S(=O)(=O)N(CC(=O)Nc2ccccc2)CC2CCCO2)cc1 (stereo not drawn)	/	7	-1	-19	/	4.5	3476
Cc1ccccc1N1CCN(C2CCCN(C(=O)c3cnsn3)C2)CC1 (stereo not drawn)	6	3	3	-10	2	3.6	6079

# Next records
structure	Mtb hypoxia inh	BJeLR viability	ugtP null kill	PrP 5UTR inh	Mtb hypoxia inh growth	Sa RN4220 lethal	Bead autofluor
CCN(CC)c1ccc(NC(=O)COc2ccc(C#N)cc2)cc1S(=O)(=O)Nc1ccc(OC)cc1	-3	-1	-21	13	-13	4.5	8045
c1ccc(COc2ccc(OCCCN3CCCC3)cc2)cc1	8	3	18	8	8	0.5	8990
Cc1cccc(NC(=O)c2ccc(NCCO)c([N+](=O)[O-])c2)n1	11	-6	4	-58	1	4.7	4941
O=C(CCl)Nc1cn(-c2ccccc2)nc1-c1ccc(F)cc1	/	-5	12	-8	/	-2.4	3421
Cc1oncc1C(=O)Nc1cccc2ccccc12	6	-6	1	9	12	2.8	4265
CCOC(=O)c1sc(NC(=O)CCCCl)nc1C	3	5	8	-6	15	4.2	2760
Cc1ccc(CN2CCN(CCC(C)C)C(CCO)C2)s1 (stereo not drawn)	12	-1	5	-20	-6	-0.1	2012
CCOc1ccccc1-n1c(COc2ccccc2)nnc1SCC(N)=O	5	8	3	-9	7	1.7	10605
O=C(O)C(c1ccccc1)C1(O)CCCC1 (stereo not drawn)	/	-1	-3	-11	/	-2.3	6070
COc1ccccc1C1CC(=O)Nc2cc3c(cc21)OCCO3 (stereo not drawn)	19	47	-8	10	5	7.2	9238
Cc1nn(C)cc1S(=O)(=O)Nc1ccccc1Br	12	-6	-1	-12	-22	1.4	6453
Cc1c(C(=O)OCC[N+]2(C)CCCCC2)oc2ccccc12	8	-7	6	1	5	-1.4	1954
Cc1ccc(Nc2nc(N3CCN(C)CC3)nc(N)c2[N+](=O)[O-])cc1C	8	-9	-4	/	9	6.2	/
Cc1nn(CC(=O)NCCc2ccc(Cl)cc2Cl)c(C)c1[N+](=O)[O-]	3	-2	5	-8	0	4.2	1963
Cc1cc(N2CCOCC2)n2ncc(-c3ccccc3Cl)c2n1	15	-8	5	-128	5	2.5	4211

# (next part)
structure	Mtb hypoxia inh	BJeLR viability	ugtP null kill	PrP 5UTR inh	Mtb hypoxia inh growth	Sa RN4220 lethal	Bead autofluor
O=C(Cn1cnc2ccccc2c1=O)Nc1ccc(N2CCOCC2)cc1	8	-1	1	2	1	-0.4	3908
CN(Cc1cccc2ncccc12)C(=O)CC1C(=O)NCCN1Cc1ccc(F)cc1 (stereo not drawn)	7	-4	9	-13	15	5.4	4776
Cc1ccc(S(=O)(=O)NC(C)(C)CSc2ncccn2)cc1	6	-4	2	-16	2	5.8	3191
COCCNC(=S)NNc1ccc(Cl)c(C(=O)O)c1	6	3	-8	-17	-6	3.7	4469
COc1ccc(OC)c(-c2nnc3n2N=C(c2ccc(OC)c(OC4CCOC4)c2)CS3)c1 (stereo not drawn)	-1	/	-4	72*	10	12	3781
O=C1c2ccccc2NC(c2cn[nH]c2-c2ccccc2)N1O (stereo not drawn)	8	-18	3	-28	9	1.6	2446
COCCCNc1nc(N)c([N+](=O)[O-])c(NCC2CCCO2)n1 (stereo not drawn)	-1	2	4	-27	2	3.3	5662
O=C(c1ccc(F)cc1)N1CCCC(c2nc(-c3ccncc3)no2)C1 (stereo not drawn)	4	/	2	-14	9	2.4	4243
COc1ccc(CCn2c(-c3cc([N+](=O)[O-])cc([N+](=O)[O-])c3)nc3nc4ccccc4nc32)cc1	20	3	2	-26	21	8.8	2461
CCOC(=O)c1c(NCC2CCCO2)c2ccccc2[nH]c1=O (stereo not drawn)	6	4	-8	-39	4	-4.9	?
O=S(=O)(NCc1ccc2c(c1)OCO2)c1ccc2oc3ccccc3c2c1	5	6	-10	1	5	5.6	16406*
C/C=C/c1ccc(OCCOc2ccc(C=O)cc2)c(OC)c1	7	17	2	-19	1	-4.2	1981
CCOCc1nnc(NC(=O)c2c(OC)cccc2OC)s1	/	5	11	-25	/	5.6	3071
Cn1c(SCC(N)=O)nnc1C1CCN(C(=O)NCc2ccccc2)CC1	/	8	1	-23	/	1.8	4594
CC(Oc1ccc2c(-c3ccccc3)cc(=O)oc2c1)C(=O)NCC1CCC(C(=O)O)CC1 (stereo not drawn)	/	-5&-9	4&2	-10&-10	/	2.5&1.0	5540&5596

# (list continues)
structure	Mtb hypoxia inh	BJeLR viability	ugtP null kill	PrP 5UTR inh	Mtb hypoxia inh growth	Sa RN4220 lethal	Bead autofluor
Cc1cc(C)nc(N/N=C/C=C/c2ccccc2)n1	/	1	/	-29	/	/	2114
CC1C(=O)N2CCCc3cc(S(=O)(=O)N4CCN(c5cccc(Cl)c5)CC4)cc1c32 (stereo not drawn)	-2	18	-1	-51	-2	0.3	6137
NC(=S)NNC(=O)c1ccccc1Cl	-1	-9	14	-29	-1	3.1	5695
Cc1cc(C)cc(NC(=O)C2CCCN2S(=O)(=O)c2cccc3cccnc23)c1 (stereo not drawn)	3	4	1	-5	-2	0.9	6297
Cc1ccc(NC(=O)N2CCC(NC(=O)c3ccco3)CC2)cc1	4	-5	7	-3	4	4.3	3495
Cc1nn(C)cc1C=NO	5	/	3	/	7	1.1	/

# Limited to Mtb hypoxia inh, Mtb hypoxia inh growth and PrP 5UTR inh, for some of the entries so far:
structure | Mtb hypoxia inh | Mtb hypoxia inh growth | PrP 5UTR inh
CCOc1ccccc1-n1c(COc2ccccc2)nnc1SCC(N)=O | 5 | 7 | -9
O=C(O)C(c1ccccc1)C1(O)CCCC1 (stereo not drawn) | / | / | -11
COc1ccccc1C1CC(=O)Nc2cc3c(cc21)OCCO3 (stereo not drawn) | 19 | 5 | 10
